High-throughput results: PubChem BioAssay, several laboratories
PABP polyA inh: blocks human PABP binding to poly(A) RNA; P11940; fluorescence polarization; inhibition, % at 35 µM; 290,000 tested, 1% active;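 active = 50% or more with normal probe brightness, or confirmed in later tests; about a fifth of its hits are not listed in these tables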;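 note: calls also rest on retests at 20 µM and on dose response follow-up; controls were probe without protein and protein plus probe with vehicle; some compounds called inactive have numbers as strong as hits; many hits fall short of the cut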
Target sequence (P11940 whole entry, looked up): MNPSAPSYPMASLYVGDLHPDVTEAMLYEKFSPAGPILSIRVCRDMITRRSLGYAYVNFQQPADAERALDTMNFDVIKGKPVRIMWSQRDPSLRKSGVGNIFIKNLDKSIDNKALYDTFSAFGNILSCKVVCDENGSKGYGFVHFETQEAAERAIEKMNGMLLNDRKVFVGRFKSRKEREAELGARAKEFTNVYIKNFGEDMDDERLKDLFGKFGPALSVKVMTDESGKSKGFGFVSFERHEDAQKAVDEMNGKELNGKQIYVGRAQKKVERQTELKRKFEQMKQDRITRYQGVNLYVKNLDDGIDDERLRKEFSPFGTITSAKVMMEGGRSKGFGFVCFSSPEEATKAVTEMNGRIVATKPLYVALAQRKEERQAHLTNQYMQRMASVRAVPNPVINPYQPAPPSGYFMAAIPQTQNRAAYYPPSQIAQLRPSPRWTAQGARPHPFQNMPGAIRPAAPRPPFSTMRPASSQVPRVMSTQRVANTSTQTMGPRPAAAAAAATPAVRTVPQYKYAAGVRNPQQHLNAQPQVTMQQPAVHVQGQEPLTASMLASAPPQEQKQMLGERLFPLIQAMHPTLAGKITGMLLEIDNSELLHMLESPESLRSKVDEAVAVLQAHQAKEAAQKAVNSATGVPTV
CSC inhib: blocks cancer stem cells; cancer stem cell-like cells viability, luminescence; inhibition, % at 7.5 µM; 300,000 tested, 1.1% active;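 active = mean at 75% or more and at least half the replicates too; tested in HMLE shEcad cells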;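 note: 0% = median of negative and 100% = median of positive control wells; the first replicate is given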
eIF4H FP inh: inhibitors of RNA binding by human eIF4H | eIF4H fluorescence polarization binding assay | inhibition, % at 35 µM | 290,000 tested, 0.94% active;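 active = 50% or more with normal probe brightness, or confirmed in later tests; about a fifth of its hits are not listed in these tables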;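 note: calls also rest on retests at 20 µM and on dose response follow-up; 0% = protein and probe with vehicle and 100% = probe without protein; strong numbers were not always called active; many hits fall short of the cut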
MT1-MMP act inh: MT1-MMP (human) activation inhibition; P50281; HT1080 RFP-PRO-GFP cells, GFP/RFP ratio fluorescence, overnight; percent of plate control window, DMSO zero; GFP/RFP ratio change, % at 20 µM; 360,000 tested, 0.061% active; AID 651647;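 active = GFP/RFP ratio change of at least 30% with cell ATP level not reduced by more than half and red fluorescence within 50% of control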; note: strong numbers were not always called active
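Material – HT1080 RFP-PRO-GFP cells · Control set – DMSO wells and RFP-L50D-GFP cells · Incubation – overnight cell settling, then overnight compound exposure, 37 °C, 5% CO2 · Compound dosing – single-point 20 µM compound, 1% DMSO · Read-out – GFP/RFP fluorescence ratio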
Rce1 inh: inhibitors of yeast Ras-converting enzyme; Q03530; yeast membranes, quenched prenylated peptide cleavage fluorescence; calls only; 290,000 tested, 0.27% active;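 active = fall in fluorescence gain of 50% or more versus controls, with final raw signal at or below 3038400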;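 note: plate controls were neutral control wells for no effect and wells lacking membranes for full effect; tested at 10 µM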
Target sequence (Q03530 whole entry, looked up): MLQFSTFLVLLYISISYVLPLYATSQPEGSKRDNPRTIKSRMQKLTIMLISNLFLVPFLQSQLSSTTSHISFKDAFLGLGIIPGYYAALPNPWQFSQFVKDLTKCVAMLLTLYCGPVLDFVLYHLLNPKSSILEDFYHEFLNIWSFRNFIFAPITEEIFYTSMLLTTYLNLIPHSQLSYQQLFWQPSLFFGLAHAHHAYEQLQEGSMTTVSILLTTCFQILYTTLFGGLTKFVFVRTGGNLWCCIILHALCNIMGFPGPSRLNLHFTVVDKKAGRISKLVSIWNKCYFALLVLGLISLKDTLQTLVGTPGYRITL
UUG fidelity: modulators of start codon recognition fidelity in yeast; activity score, % at 18.7 µM; 350,000 tested, 0.13% active; S. cerevisiae UUG-firefly luciferase reporter, luminescence/redox ratio;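 active = replicate mean at a twofold rise or more, about +100% in these data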;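 note: firefly luciferase made from a UUG start codon reports start codon fidelity; reporter light over untreated wells divided by growth signal over untreated wells; some hits fall short of that in this replicate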
HIV Env fusion: blocks HIV Env-driven cell-cell fusion; HeLa-JRFL Env/CEM21 cell fusion, luciferase; inhibition, % at 12.3 µM; 360,000 tested, 1.1% active; AID 651610;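 active = mean replicate inhibition score of at least 50 and every replicate individually at or above 50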;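 note: 0% = plate neutral controls and 100% = maraviroc near 300 nM; one replicate is shown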
eIF4H FP inh retest: also measured in eIF4H FP inh; calls as there; inhibition, %; compound at 20 µM; confirmation average;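 mean of two retest wells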
PABP polyA inh retest: second read-out of PABP polyA inh, no call of its own (marks repeat the call); inhibition, %; compound at 20 µM; confirmation repeats;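 mean of two retest wells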
MT1-MMP act inh RFP: also measured in MT1-MMP act inh; calls as there; RFP signal change, %; measured here: RFP expression control read;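 0 = vehicle wells; hits needed this value within 50% of zero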
The depositor's hits bear a star; i = inactive; / = not tested or not shown; & = joins results of further samples. Hits appear at their usual frequency; any-hit rate near 3%.

SMILES	PABP polyA inh	CSC inhib	eIF4H FP inh	MT1-MMP act inh	MT1-MMP act inh RFP	Rce1 inh	UUG fidelity	HIV Env fusion	others
CCOC(=O)C1=CCN(S(=O)(=O)c2ccccc2C)C1c1ccc(Cl)c(Cl)c1 (centres undefined)	/	/	/	4.1	0.0	/	8.8	33.3
CCC1CN(C(=O)NCc2ccccc2)c2ccccc2O1 (centres undefined)	1.1	-3.0	-13.9	-3.3	-3.0	i	-9.6	-13.4
O=S(=O)(c1cccc2nsnc12)N1CCN(c2ccc(F)cc2)CC1	19.4	-12.3	-1.6	2.3	-0.4	i	-14.4	-0.5
CC(=O)NC1(c2ccccc2)CCN(c2nc(C)cc(C)n2)CC1	-13.0	-4.7	-6.6	4.1	2.1	/	-7.5	/
Cc1nc2ccccc2nc(C)c1=NOCc1ccccc1Cl	-9.4	2.6	6.6	0.7	2.9	i	/	10.0
O=C1C=CC(=O)N1CCCCCCN1C(=O)C=CC1=O	-6.4	102.3*	0.9	/	/	/	/	-14.6
COCCN1Cc2cccc(C(=O)NCc3cccs3)c2C1=O	-5.5	/	8.1	4.0	3.6	i	-21.6	-11.0
CCn1nnc2cc(C(=O)OCC(=O)N(C)Cc3cccc(F)c3)ccc21	/	-14.1	/	-1.3	1.1	/	-32.0	-5.3
O=C(Nc1ccccc1C(=O)N1CCCCCC1)c1cccc(S(=O)(=O)N2CCOCC2)c1	12.1	/	-0.1	-2.0	0.7	i	/	/
O=C(CC1Oc2ccc(Cl)cc2NC1=O)NC1CCCCCC1 (centres undefined)	-23.2	/	-1.4	0.0	0.6	i	-3.2	2.9
COC(=O)C1=CO[C@@H](OC2OC(CO)C(O)C(O)C2O)[C@@H]2C(CO)=CC[C@H]12 (some centres undefined)	6.9	3.7	1.9	-0.1	2.3	i	-13.5	-13.7
COc1ccccc1CCN1CCCC(CN(C)C(=O)CCC(=O)N(C)C)C1 (centres undefined)	-4.9	-0.9	2.3	1.4	0.3	i	-3.3	7.2
Nc1ccccc1Sc1c[nH]c2ccccc12	1.0	24.2	-10.7	-2.1	-1.0	i	-12.3	0.9
O=c1[nH]c2ccc(NCc3ccccc3OCc3ccc(Cl)cc3)cc2[nH]1	-1.4	7.0	0.4	-10.5	-20.9	i	-7.2	-0.3
Cc1nnc(NC(=O)CCn2cnc3ccccc3c2=O)s1	-2.4	-2.5	-4.4	1.0	6.4	i	/	-7.0
COc1ccc(/C=N/OC(=O)c2ccc(Cl)cc2)c(Cl)c1OC	1.7	-5.0	-7.8	0.9	-0.5	i	1.3	-4.8
CCC(CC)C(=O)N(C)c1c(C)nc2c(OCC3CCCCC3)cccn12	/	/	/	-16.2	-18.8	/	-9.2	30.3
CN(C(=O)c1cccc(NC(=O)Cc2cccc(NC(=O)C3CCN(C(=O)C4CCCC4)CC3)c2)c1)C1CCC1	/	/	/	1.0	-1.3	/	-3.9	-12.0
NS(=O)(=O)c1ccc(NC(=O)COC(=O)c2cccc(S(=O)(=O)N3CCCC3)c2)cc1	1.0	-9.8	-0.3	0.2	7.1	i	4.2	2.7
CCCSc1cc(=O)n(-c2ccc(F)cc2)nc1C(=O)OCC	-13.1	-24.7	-7.4	-1.0	4.5	i	/	4.6
Cc1ccc(NC(=O)C2CCN(C(=O)c3ccc(F)cc3)CC2)nc1	/	-4.6	/	-6.9	-5.7	i	-16.0	3.3
COc1cccc(CC(NC(C)=O)C(=O)NC2CCN(c3ncccc3[N+](=O)[O-])CC2)c1 (centres undefined)	0.5	-11.5	0.7	/	/	i	/	-6.5
COc1ccc(CN2CCN(C(=O)CCC(=O)Nc3nnc(C(C)C)s3)CC2)cc1F	1.4	-9.3	-7.1	6.6	-12.7	i	-16.9	6.2
COc1ccc(/C(C)=N/NC(=O)CNC(=O)/C=C/c2ccccc2OC)cc1	-1.6	-0.2	2.6	2.4	3.2	i	-11.4	5.2
Cc1ccc(S(=O)(=O)N2CCN(C)CC2)cc1-c1nnc2c3ccccc3c(C)nn12	1.7	-17.0	-0.6	-3.9	-1.0	i	-20.5	-35.1
COc1ccc(NC(=O)c2cccnc2Cl)c(S(=O)(=O)N2CCOCC2)c1	-3.2	29.8	-4.8	-1.2	3.3	i	-13.2	-10.3
COc1ccc(Nc2nc(OC)nc(N3CCOCC3)n2)cc1	-1.0	7.5	-3.2	3.5	5.8	i	-13.9	-10.6
C=CCNC(=O)c1ccc(OC2CCN(S(=O)(=O)N(C)C)CC2)cc1	-12.4	5.8	-4.6	2.2	0.0	i	-2.3	-21.4
COc1ccc(-c2nnc3ccc(SCC(=O)N4CCN(c5ccccc5)CC4)nn23)cc1	/	/	/	-2.8	2.1	/	-9.6	-16.1
Cc1cc(C(=O)NNC(=S)NCc2ccccc2)no1	2.6	/	-8.4	0.9	2.7	i	-28.6	-16.5
Cc1ccc2nc(-c3ccccn3)cc(C(=O)NCCc3ccc(F)cc3)c2c1	0.7	5.5	0.6	0.6	-1.6	i	-7.8	10.0
CC1CCCN(c2nc3ccccc3nc2C(C#N)S(=O)(=O)c2cccs2)C1 (centres undefined)	59.3	34.4	34.7	-33.3	1.8	i	-8.1	-47.1	eIF4H FP inh retest=7.8;PABP polyA inh retest=-1.6
C#CCCc1cscc1/C=[N+](\[O-])c1ccc(C(=O)OCC)cc1	/	-17.1	/	0.5	-1.0	/	-14.5	-26.1
Cn1cc(C(=O)c2ccc(Cl)cc2Cl)cc1C(=O)NN	10.6	/	0.9	-3.0	2.1	i	-14.3	-1.3
CC1(C)N(OCc2ccccc2)C(=O)C(=O)N(OCc2ccccc2)C1(C)C	6.6	3.7	2.2	2.8	-0.8	i	-14.8	-6.2
CS(=O)(=O)c1ccc(NC(=O)c2ccccc2-n2cnnn2)cc1	/	-10.5	/	0.3	5.2	/	-17.1	6.6
COc1ccc(-c2cc(C)nc(SCC(=O)c3cccc([N+](=O)[O-])c3)n2)cc1	-2.2	-3.5	8.0	9.4	-12.8	i	-0.6	43.3
CCOC(=O)CCc1c(C)nc2cc(-c3ccc(Cl)cc3)[nH]n2c1=O	-2.3	0.0	-1.3	7.5	-1.4	i	-12.5	/
O=C(Cn1cnc([N+](=O)[O-])n1)NCCO	3.9	7.2	3.0	-1.4	5.1	i	1.1	-16.7
O=C(C[C@H]1C(=O)N(C2CCCCC2)C[C@@H]1c1ccccc1)Nc1ccc(Br)cc1	/	/	/	2.4	-4.0	/	-14.3	-30.8
CC(CCc1ccccc1)NC(=O)COC(=O)c1cccn1C (centres undefined)	/	/	/	-3.9	2.3	/	-9.6	3.8
CCn1c(=O)n(CC)c2cc(S(N)(=O)=O)c(C)cc21	-8.9	-11.1	-3.5	3.7	7.5	i	5.1	-2.4
CCCOc1ccc(/C=C/c2c([N+](=O)[O-])c(=O)n(C)c(=O)n2C)cc1	-13.4	-4.2	1.0	-0.4	-9.4	i	-26.1	-38.9
CCOC(=O)C1CCN(S(=O)(=O)c2c(C)[nH]c(C)c2C(=O)N2CCCC2)CC1	-6.8	3.4	-2.0	1.4	3.2	i	-7.2	7.7
Cn1cc(CC(=O)N2CCN(c3ccc(Cl)cc3)CC2)c2ccccc21	3.5	-3.0	1.0	-8.8	-1.3	i	-8.7	/

Overlap with the part before: 3 compounds, followed by the next part.
SMILES	PABP polyA inh	CSC inhib	eIF4H FP inh	MT1-MMP act inh	MT1-MMP act inh RFP	Rce1 inh	UUG fidelity	HIV Env fusion	others
CCCOc1ccc(/C=C/c2c([N+](=O)[O-])c(=O)n(C)c(=O)n2C)cc1	-13.4	-4.2	1.0	-0.4	-9.4	i	-26.1	-38.9
CCOC(=O)C1CCN(S(=O)(=O)c2c(C)[nH]c(C)c2C(=O)N2CCCC2)CC1	-6.8	3.4	-2.0	1.4	3.2	i	-7.2	7.7
Cn1cc(CC(=O)N2CCN(c3ccc(Cl)cc3)CC2)c2ccccc21	3.5	-3.0	1.0	-8.8	-1.3	i	-8.7	/
COC(=O)c1c(NC(=O)CN2CCC3(O)CCCCC3C2c2cc(OC)ccc2OC)sc(C)c1C (centres undefined)	7.0	16.1	-9.7	-14.0	-18.2	i	/	90.6*
O=C(CN1C(=O)c2ccccc2S1(=O)=O)Nc1ccccc1C(=O)NCc1ccco1	4.4	-14.7	-8.2	3.3	-0.9	i	-20.8	/
O=C(NNC(=O)c1cccc([N+](=O)[O-])c1)c1ccncc1	-5.3	/	-4.8	0.8	3.6	i	/	8.6
CC(C)COC(=O)N(C)C[C@H]1OCc2cnnn2CCCC(=O)N([C@H](C)CO)C[C@H]1C	/	/	/	4.1	2.8	/	-19.5&3.4&-14.9	25.9
CCc1ccc(NC(=O)c2ccc(NC3=NC4CS(=O)(=O)CC4S3)cc2)cc1 (centres undefined)	-4.5	-1.7	-3.4	1.3	0.3	i	-8.6	-10.8
CCn1cc(C(=O)N[C@H](C(=O)NC(C)(C)CO)C(C)C)c(=O)c2cc3c(cc21)OCO3	-8.7	-3.8	90.5	-0.3	2.2	i	5.2	-2.1	eIF4H FP inh retest=-0.9;PABP polyA inh retest=7.9
CC(C)(C)n1cnc2cc(NS(=O)(=O)c3ccccc3)ccc21	-6.7	11.8	-9.4	0.9	-2.8	i	-15.7	/
C=C(C)C1CC=C(C)/C(=N/NC(=O)COc2ccc(Cl)cc2)C1 (centres undefined)	5.9	-0.6	6.2	0.1	1.3	i	-1.1	-10.6
Cc1c(C)c(C)c2[nH]c(=S)[nH]c2c1C	9.8	5.0	-4.2	-4.8	-2.1	i	-6.1	24.3
C=CCn1c(SCC(=O)NC2CCCCC2)nc2ccccc2c1=O	-4.7	-17.9	1.0	3.0	-0.3	i	1.1	-2.8
S=C(N/N=C/c1ccc(Cl)cc1)N1CCOCC1	-3.2	11.3	11.5	3.8	4.0	i	/	-6.3
O=C(CN1C(=O)NC2(CCOc3ccccc32)C1=O)c1ccc(Cl)cc1 (centres undefined)	/	-8.2	/	0.3	2.4	i	-15.6	-16.9
CN1/C(=C\C=O)C(C)(C)c2ccccc21	6.3	3.3	48.4	9.9	9.6	i	/	7.3
CC(C)C(=O)Nc1ccc(C(=O)NC2CCSC2=O)cc1 (centres undefined)	0.7	-3.1	4.6	1.7	5.5	i	-17.5	-23.4
COc1ccc(C(=O)NCCCOc2cccc(NC(C)=O)c2)cc1	0.1	4.1	-7.6	-3.8	1.8	i	/	-6.6
Cc1cccc(C)c1NC(=O)CN(C)C(=O)CC1Sc2ccccc2NC1=O (centres undefined)	/	-4.3	/	-0.2	4.4	i	10.2	2.0
CC1CCN(C(=O)CSc2nnc(Cc3cc(=O)[nH]c(=O)[nH]3)n2-c2ccc(Cl)cc2)CC1	-17.6	10.2	42.6	-3.1	3.4	i	-5.8	-12.2
CC(=O)Nc1cc(-c2ccc(C(=O)N3CCOCC3)cc2)cn2c(-c3cccc(C(C)=O)c3)cnc12	/	/	/	-1.4	3.6	/	4.6	15.6
Cc1cccc(OCC(=O)NCCNC(=O)c2ccco2)c1	5.4	3.6	-1.0	1.3	4.6	i	-1.6	-0.6
Cc1ccc(C(=O)O)cc1NC(=O)c1cccs1	-8.6	-7.9	-1.3	1.7	5.4	i	-21.5	-45.5
O=c1nc2n(c3cc(Cl)c(S(=O)(=O)N4CCOCC4)cc13)CCCCC2	0.6	-3.7	-6.6	5.0	5.6	i	20.4	/
Nc1ccc(C(=O)NCc2ccccc2)cc1	3.4	2.1	8.5	2.0	0.7	i	/	-10.7
O=S(=O)(Nc1ccc(O)c2ncccc12)c1ccccc1F	/	/	/	-2.7	13.1	/	-12.6	-23.7
